Cruzain inh noDet = cruzain (T. cruzi) inhibition without detergent; P25779; purified cruzain, Z-FR-AMC fluorescence, no detergent; actives 2.3% (n = 200,000); Potency, µM, for the others: max response, negative = inhibition, actives largely listed as inhibitors; active means well fitted curve in the direction sought with a large enough effect; inconclusive means small, poorly fitted or top-dose-only effect, or another doubt; inactive means no such curve, though single readings can be large; an effect the other way counts as inactive or inconclusive;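 further: plate controls were enzyme without inhibitor for no effect and buffer without enzyme for full effect; nearly all actives have a fitted effect of over 40% in size; top concentration of the series not given in the record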
Target sequence (P25779 123-467 limits assumed): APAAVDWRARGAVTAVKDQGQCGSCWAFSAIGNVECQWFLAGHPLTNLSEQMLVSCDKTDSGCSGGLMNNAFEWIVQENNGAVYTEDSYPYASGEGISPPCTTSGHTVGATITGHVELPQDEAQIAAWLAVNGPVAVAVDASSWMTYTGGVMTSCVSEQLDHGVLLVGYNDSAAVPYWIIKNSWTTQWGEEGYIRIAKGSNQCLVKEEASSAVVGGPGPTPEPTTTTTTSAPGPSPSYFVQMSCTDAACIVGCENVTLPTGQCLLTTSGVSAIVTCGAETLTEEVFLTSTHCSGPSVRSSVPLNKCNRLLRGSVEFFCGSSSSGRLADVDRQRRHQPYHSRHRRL
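Detergent-free condition (0.00005% Triton X-100) in acetate buffer pH 5.5 with DTT. 1.5 nM enzyme and compound were pre-mixed 15 min, then 2 uM Z-FR-AMC substrate added; reaction progress from fluorescence change between first and third reads (60 s).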
Marburg entry inh = Marburg virus entry inhibition; Marburg virus pseudotyped entry inhibition, cell reporter; control for the full effect not named in the record; about a third of the inactives were read at about 46 µM; actives 1.8% (n = 300,000); Potency, µM (series often up to 37.8 µM), without a hit: at the top dose activity change, negative = inhibition, actives largely listed as inhibitors; active = well fitted inhibition curve with a large enough effect; inconclusive = small, poorly fitted or top-dose-only effect, or effect the other way; inactive = flat fitted curve, though single readings scatter; tested in HEK293 cells; about a fifth of its hits are not listed in these tables; further: on the % scale 0 is the no-effect control and ±100 the full control effect; luciferase read-out
Cruzain Triton = inhibitors of Trypanosoma cruzi cruzain with detergent. P25779. purified cruzain, Z-FR-AMC fluorescence, 0.01% Triton. Potency, µM, inactives show max response, negative = inhibition, usual class: inhibitors. actives 0.43% (n = 200,000); active means well fitted curve in the direction sought with a large enough effect; inconclusive means small, poorly fitted or top-dose-only effect, or another doubt; inactive means no such curve, though single readings can be large; an effect the other way counts as inactive or inconclusive;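 further: plate controls were neutral wells for no effect and buffer without enzyme for full effect; nearly all actives have a fitted effect of over 40% in size; top concentration of the series not given in the record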
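Read-out: AMC fluorescence (360 nm excitation, 450 nm emission), four reads over 2 min, first-to-third difference used. Conditions: cruzain 1.5 nM, Z-FR-AMC 2 uM, pH 5.5 acetate, 5 mM DTT, 0.01% Triton X-100.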
RE007 growth inh = less growth of the S. pombe RE007 Vpr strain; S. pombe RE007 Vpr strain, BacTiter-Glo ATP luminescence, 24 h; control for the full effect not named in the record; Potency, µM (doses to about 92.2 µM), for the others: at the highest dose activity change, negative = less growth; actives 0.21% (n = 360,000); active = well fitted falling curve with a large enough effect; inconclusive = small, poorly fitted or top-dose-only effect; inactive = no such curve, though single readings can be large or run the other way;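 further: on the % scale 0 is the no-effect control and ±100 the full control effect; nearly all actives have a fitted effect of over 50% in size; the assay follows cell death caused by Vpr and the record does not say whether a fall means rescue or toxicity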
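Fission yeast RE007 carrying one integrated HIV-1 vpr copy, seeded at OD 0.01 in PMG+AL medium with 23 nL pinned compound. Grown 24 h at 30 degrees; viability read by BacTiter-Glo luminescence after 5 min.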
2A StopGo = FMDV 2A StopGo reporter, luciferase signal | human cells with a luciferase reporter of 2A StopGo recoding; control for the full effect not named in the record | Potency, µM (series often up to 57.9 µM), for the others: top-dose signal change, negative = less light | actives 1.2% (n = 410,000); active = well fitted falling curve with a large enough effect; inconclusive = small, poorly fitted or top-dose-only effect; inactive = no such curve, though single readings can be large or run the other way; tested in HEK293T cells; further: on the % scale 0 is the no-effect control and ±100 the full control effect; nearly all actives have a fitted effect of over 45% in size; luciferase light after 4 h
SARS PLpro yeast = SARS-CoV PLP inhibition in yeast. S. cerevisiae expressing SARS-CoV PLpro, growth rescue; control for the full effect not named in the record. Potency, µM (series often up to 32.9 µM), for inactives: at the highest dose activity, positive = growth rescue. actives 0.19% (n = 330,000); further: 0% is about no effect; nearly all actives have a fitted effect of over 55% in size; growth read by luminescence after 48 h
LASV entry inh = Lassa virus entry inhibition; Lassa virus pseudotype entry inhibition, cell reporter; control for the full effect not named in the record; AID 540256; Potency, µM (highest dose often 37.9 µM), without a hit: at the top dose activity change, negative = inhibition, usual class: inhibitors; actives 1.2% (n = 300,000); active means well fitted inhibition curve with a large enough effect; inconclusive means small, poorly fitted or top-dose-only effect, or effect the other way; inactive means flat fitted curve, though single readings scatter; tested in HEK293 cells; further: on the % scale 0 is the no-effect control and ±100 the full control effect; nearly all actives have a fitted effect of over 50% in size; luciferase read-out
NS1 function inh = inhibitors of influenza NS1 protein function; S. cerevisiae slowed by influenza A NS1, growth recovery by OD600; Potency, µM (doses to about 46.1 µM), without a hit: top-dose activity, positive = more growth; actives 0.4% (n = 270,000); AID 2326; further: actives are rising curves; nearly all actives have a fitted effect of over 50% in size
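In this qHTS, NS1 from influenza A is expressed in budding yeast, where it slows growth. Cells are switched from glucose to 2% galactose medium (pH 6.0, -URA), treated with compound, and growth recovery is read at OD600.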
Numbers without * were called inactive; ? = inconclusive; . = no result given; & = joins results of further samples; [ ] = dose if it differs, or a comment. Unless noted, the call rests on the fitted dose curve; in most records, active means well fitted rising curve with a large enough effect; inconclusive means small, poorly fitted or top-dose-only effect; inactive means no such curve, though single readings can be large or run the other way. Potency means the concentration at half of the fitted maximal effect.

The line under a structure holds: LASV entry inh | NS1 function inh | Cruzain Triton | Marburg entry inh | Cruzain inh noDet | SARS PLpro yeast | 2A StopGo | RE007 growth inh
1: Cc1cccc(N(C(=O)c2csnn2)C(C(=O)NC2CCCCC2)c2ccncc2)c1 (stereo not given)
  ? | -6% | . | 5%[46.1 µM] | . | 5% | 1% | -10%
2: COC(=O)C1=C(C)N(Cc2ccco2)C(=O)N[C@H]1c1ccc(Br)cc1
  ? | -7% | -0.4%&-3.1% | 1%&1%&1% | -3%&0% | 18% | . | .
3: COc1ccc(OC)c(/C=N/NC(=O)C(=O)N/N=C/c2cc(OC)ccc2OC)c1
  -2%[46.1 µM] | . | . | ? | . | . | -17% | 13%
4: Cn1nccc1NC(=O)Nc1cccc(Cl)c1
  -1%[46.1 µM] | -3% | . | -7%[46.1 µM] | . | 2% | 25% | 8%
5: COC(=O)N1CCCc2cc(S(=O)(=O)NCc3ccccc3)ccc21
  -23%[46.1 µM] | . | -3.4% | 4%[46.1 µM] | -6% | . | 65%[activator] | .
6: O=C(COc1ccc(S(=O)(=O)NC2CCCCC2)cc1)NCc1cccnc1
  -16% | 1% | -1.7% | 0% | 4% | . | . | -8%
7: O=C(CC1Nc2ccccc2NC1=O)NCCCN1CCCCCC1 (stereo not given)
  -3% | 5% | 0.9% | ? | -3% | -6% | -6% | -7%
8: CCCCOC(=O)c1ccc(NC(=O)c2cc(-c3ccccc3)on2)cc1
  18%[46.1 µM] | . | -0.5% | 19%[46.1 µM] | -5% | . | 2% | .
9: CN(Cc1c(F)cccc1Cl)C(=O)C1CC(=O)N(CCc2ccccc2)C1 (stereo not given)
  ? | . | . | -3%[46.1 µM] | . | -1% | 23% | -7%
10: COc1ccc(NC(=O)CN(c2cccc(C(F)(F)F)c2)S(C)(=O)=O)cc1OC
  -10% | -23% | -5.1% | 6% | 7% | -5% | -8% | -2%
11: Cc1ccc(S(=O)(=O)Nc2nc3ccccc3nc2Nc2cccc(S(=O)(=O)N3CCCC3)c2)cc1
  . | 4% | . | . | . | 0% | -28% | 12%
12: CC(C)N(Cc1ccccc1)C(=O)CN1C(=O)NC2(CCCc3ccccc32)C1=O (stereo not given)
  . | 12% | . | . | . | -2% | 0% | 4%
13: CCCOc1ccc(C(=O)Nc2ccc(NC(=O)c3ccccc3)c(C)c2)cc1
  -19%[46.1 µM] | . | 0.8% | . | 10% | . | -7% | .
14: Nc1c(-c2nc(-c3cccs3)no2)nnn1-c1ccc(Cl)cc1
  25%[46.1 µM] | . | -1.2% | . | -1% | . | 29% | .
15: COCCn1c(N)c(Sc2ccc([N+](=O)[O-])cc2)c(=O)[nH]c1=O
  -5% | 5% | . | 4%[46.1 µM] | . | -1% | -4% | -2%
16: Cc1cccc(C(=O)NNC(=O)C2CCCO2)c1 (stereo not given)
  -2% | -3% | -1.2% | 15% | -11% | 0% | 15% | 2%
17: CCN1CCN(c2nc3c(c(=O)[nH]2)CCC3)CC1
  . | 26% | . | . | . | -5% | 26% | -9%
18: COC(=O)c1sccc1NC(=O)c1ccc(Cl)s1
  -1% | -6% | -3.0% | 1% | -5% | 0% | -17% | 8%
19: CC(Oc1ccc2c(-c3ccccc3)cc(=O)oc2c1)C(=O)O (stereo not given)
  11% | 10% | -0.9% | 24%&24% | -4% | ? | . | 2%
20: CC(=O)c1ccc(N2CCN(S(=O)(=O)c3c(C)nc4sc(C)cn4c3=O)CC2)cc1
  0%[46.1 µM] | . | -3.6% | . | 16% | . | -14% | .

Next records.
The line under a structure holds: LASV entry inh | NS1 function inh | Cruzain Triton | Marburg entry inh | Cruzain inh noDet | SARS PLpro yeast | 2A StopGo | RE007 growth inh
21: CCc1ccc(-c2nc(CS(=O)CC(=O)NCCc3ccc(C)cc3)c(C)o2)cc1 (stereo not given)
  22%[46.1 µM] | . | -6.2% | . | -10% | . | 2% | .
22: O=C(CSc1nnc(CNc2ccc(F)cc2)o1)N1CCN(C(=O)c2ccco2)CC1
  2% | 7% | 3.9% | -1% | 10% | 11% | . | 1%
23: Cc1cc(C)cc(NC(=O)c2oc3ccc4c(c3c2C)C(=O)CC(C)(C)O4)c1
  7%[46.1 µM] | . | 0.7% | . | -10% | . | -3% | .
24: Cc1c(C(=O)NC2CCCc3ccccc32)oc2ccc(S(=O)(=O)N3CCCC3)cc12 (stereo not given)
  -27% | 6% | 0.7% | ? | ? | 0% | . | -3%
25: Cc1ccc(C(=O)NN=C2CCCC2)cc1C
  10%[46.1 µM] | . | . | ? | . | . | 21% | -9%
26: O=C(CSc1n[nH]c(=O)n1C1CC1)Nc1cc(Cl)ccc1Oc1ccccc1
  ? | -1% | -11% | 8.2µM* | 15% | 5% | 14µM* | 4%
27: Cc1cccc(OCC(=O)NC(Cc2c[nH]c3ccccc23)C(=O)O)c1C (stereo not given)
  -17%&21%[46.1 µM] | . | -11% | -5%&3%[46.1 µM] | 1% | -4% | -8%&-2% | 1%
28: CCn1c(=S)[nH]c2c(c1=O)C(C)(C)Cc1ccccc1-2
  . | ? | . | . | . | 0% | -10% | 27%
29: Cc1nnc(NC(=O)CCCOc2ccccc2)s1
  17% | -4% | 1.3% | -4% | -29% | 4% | ? | -6%
30: CCn1c(C)nc2cc(NC(=O)Nc3cccc(C(C)=O)c3)ccc21
  . | 2% | . | . | . | 9% | 28% | -18%
31: CCN(CC)C(=O)c1ccccc1NS(=O)(=O)c1ccc(C)cc1
  0% | 3% | 1.5% | -13% | -2% | 1% | 23% | -20%
32: COc1ccc(-n2c(COc3cccc4ccccc34)nnc2SC(C)C(=O)O)cc1 (stereo not given)
  11% | 5% | . | -14%[46.1 µM] | . | 0% | 1% | -2%
33: NS(=O)(=O)c1ccc(NC(=O)/C=C/c2cccc(Cl)c2)cc1
  1% | 6% | . | -6% | . | -1% | -5% | -6%
34: COCCNC(=O)CCC1CCN(Cc2cccc(Oc3ccccc3)c2)CC1
  ? | -11% | . | 7% | . | 3% | -15% | 4%
35: Cc1ccc(-c2nn3c(C)nnc3s2)cc1NC(=O)c1cccs1
  -2% | 4% | -3.2% | 24% | -26% | -6% | 7% | -8%
36: COc1ccc(CCNC(=O)C2CCN(C(=O)c3ccc(F)cc3)CC2)cc1OC
  . | 1% | . | . | . | 5% | -15% | -2%
37: CCc1nc2ccc(C(=O)NCc3ccccc3C)cc2nc1CC
  ? | . | -7.0% | . | -3% | . | -15% | .
38: COc1ccc(-n2c(=O)c3c4c(sc3n3c(SC(C)C)nnc23)COC(C(C)C)C4)cc1 (stereo not given)
  ? | . | -1.6% | 2%[46.1 µM] | 1% | . | -18% | .
39: CCCC[N+]12CCC(CC1)C(=C(c1ccccc1)c1ccccc1)C2
  -6% | 0% | -2.1% | 0% | -7% | -28% | -17% | 0%
40: CC(C)(CC(=O)O)CC(=O)NNc1ncccc1C#N
  5%[46.1 µM] | 0% | . | 26%[46.1 µM] | . | -1% | -2% | -12%

Going on with the list.
The line under a structure holds: LASV entry inh | NS1 function inh | Cruzain Triton | Marburg entry inh | Cruzain inh noDet | SARS PLpro yeast | 2A StopGo | RE007 growth inh
41: CC1=C(C(=O)Nc2ccccc2)C(c2ccco2)C(C#N)=C(SCC(=O)Nc2cccc(C)c2C)N1 (stereo not given)
  10% | ? | -7.8% | ? | ? | 4% | . | 5%
42: CCN(CC)S(=O)(=O)c1cc(NC(=O)c2ccccc2OCc2c(C)noc2C)ccc1C
  11µM* | . | . | ? | . | . | 19% | -2%
43: Cc1cc(NC(=O)CSc2nnc(-c3ccco3)n2N)no1
  2% | . | . | -30% | . | 0% | -18% | -3%
44: CC12CCC3C(CCC4CC(=O)OCC43C)C1CCC2O (stereo not given)
  9% | . | . | 3% | . | . | -28% | -9%
45: CC1S/C(=N/N=C2CCC(C(C)(C)C)CC2)NC1=O (stereo not given)
  8% | -3% | -3.3% | 7% | 5% | 2% | 19% | -17%
46: Clc1ccc2c(c1)C1OCCC1C(c1ccco1)N2 (stereo not given)
  0% | -16% | -3.6% | -14% | 12% | -7% | 10% | -8%
47: COc1ccc(CNC(=O)c2ccc3c(c2)N(Cc2ccccc2)C(=O)c2ccccc2S3=O)cc1 (stereo not given)
  7%[46.1 µM] | . | 3.5% | 1%[46.1 µM] | -7% | . | 9% | .
48: CC(C)CNC(=O)NC(=O)COC(=O)COc1ccc(Cl)cc1Cl
  ? | -38% | . | ? | . | -3% | -23% | -21%
49: O=C(NCc1cccs1)C(NS(=O)(=O)c1cccc2nsnc12)c1ccccc1 (stereo not given)
  -1% | -9% | -0.6% | -24% | -2% | 3% | 33%[activator] | -10%

Retrieved one by one from the entries so far, 4 records:
The line under a structure holds: LASV entry inh | NS1 function inh | Cruzain Triton | Marburg entry inh | Cruzain inh noDet | SARS PLpro yeast | 2A StopGo | RE007 growth inh
46: Clc1ccc2c(c1)C1OCCC1C(c1ccco1)N2 (stereo not given)
  0% | -16% | -3.6% | -14% | 12% | -7% | 10% | -8%
48: CC(C)CNC(=O)NC(=O)COC(=O)COc1ccc(Cl)cc1Cl
  ? | -38% | . | ? | . | -3% | -23% | -21%
44: CC12CCC3C(CCC4CC(=O)OCC43C)C1CCC2O (stereo not given)
  9% | . | . | 3% | . | . | -28% | -9%
45: CC1S/C(=N/N=C2CCC(C(C)(C)C)CC2)NC1=O (stereo not given)
  8% | -3% | -3.3% | 7% | 5% | 2% | 19% | -17%

Laid out differently: three of the compounds above.
35	Cc1ccc(-c2nn3c(C)nnc3s2)cc1NC(=O)c1cccs1
36	COc1ccc(CCNC(=O)C2CCN(C(=O)c3ccc(F)cc3)CC2)cc1OC
37	CCc1nc2ccc(C(=O)NCc3ccccc3C)cc2nc1CC

| entry no. | 35 | 36 | 37 |
| --- | --- | --- | --- |
| LASV entry inh | -2% | . | ? |
| NS1 function inh | 4% | 1% | . |
| Cruzain Triton | -3.2% | . | -7.0% |
| Marburg entry inh | 24% | . | . |
| Cruzain inh noDet | -26% | . | -3% |
| SARS PLpro yeast | -6% | 5% | . |
| 2A StopGo | 7% | -15% | -15% |
| RE007 growth inh | -8% | -2% | . |

Compound activity deposited in PubChem by National Center for Advancing Translational Sciences (NCATS).
